VDR inh: vitamin D3 receptor (human) inhibition; P11473; VDR-SRC2-3 peptide fluorescence polarization, 2 h; Potency, µM, without a hit: max response, negative = inhibition, usual class: inhibitors; 0.93% of 400,000 active; AID 504847; active = well fitted inhibition curve with a large enough effect; inconclusive = small, poorly fitted or top-dose-only effect, or another doubt; inactive = no such curve, though single readings can be large or run the other way; also: series mostly up to about 120 µM
Target sequence (P11473 whole entry, looked up): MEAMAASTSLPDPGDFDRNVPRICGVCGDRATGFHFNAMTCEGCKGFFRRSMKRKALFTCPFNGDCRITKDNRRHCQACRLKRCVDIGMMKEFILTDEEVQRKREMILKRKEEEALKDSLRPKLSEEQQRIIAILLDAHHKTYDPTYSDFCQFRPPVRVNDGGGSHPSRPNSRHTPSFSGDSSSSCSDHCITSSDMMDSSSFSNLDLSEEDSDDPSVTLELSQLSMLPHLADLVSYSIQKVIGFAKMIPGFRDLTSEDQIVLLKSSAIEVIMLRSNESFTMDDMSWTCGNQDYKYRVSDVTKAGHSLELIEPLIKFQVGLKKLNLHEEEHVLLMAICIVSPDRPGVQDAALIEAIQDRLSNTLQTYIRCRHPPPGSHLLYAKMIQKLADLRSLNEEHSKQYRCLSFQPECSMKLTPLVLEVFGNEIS
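Inhibition of the VDR/SRC2-3 peptide interaction is quantified by fluorescence polarization. Compounds (23 nl, pintool) incubate with the reagents for 2 hours at ambient room temperature.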
* marks the source's active call; other numbers are inactive results; ? = inconclusive; & = joins results of further samples; ! = repeats disagree; [ ] = dose if it differs, or a comment. % is scaled to controls: 0 for no effect and ±100 for the full control effect; potency is read from the fitted curve at half-maximal effect. This is a subset. The share of hits here may be higher or lower than overall.

compound	VDR inh
CCCCNC(=S)NNC(=O)c1sccc1C	5%
O=C(C[n+]1ccccc1)N/N=C/c1ccccc1C(F)(F)F	37%[activator]
CCc1ccccc1NC(=O)C1COc2ccccc2O1 (stereo not drawn)	0%
Cc1nc(SCC(=O)Nc2ccccc2Cl)cc(-c2ccccc2)n1	7%
CCC(=O)c1cc(F)c(N2CCN(S(=O)(=O)c3ccc(C)cc3)CC2)cc1C	3%
CN(C(=O)c1ccc2c(c1)N(Cc1cccc(Cl)c1)C(=O)c1ccccc1S2=O)C1CCCCC1 (stereo not drawn)	-13%
CC[C@H](C)[C@H](NC(=O)[C@H](N)Cc1ccc(O)cc1)C(=O)N[C@@H](CC(N)=O)C(=O)N[C@@H](CC(C)C)C(=O)N[C@H](C(=O)N[C@@H](C(=O)N[C@@H](CCCN=C(N)N)C(=O)N[C@@H](CCC(N)=O)C(=O)N[C@@H](CCCN=C(N)N)C(=O)N[C@H](Cc1ccc(O)cc1)C(N)=O)[C@@H](C)O)[C@@H](C)CC	1%
CC(C)(C)S(=O)(=O)c1cnc(-c2ccc(Cl)cc2)nc1N	-15%
N#Cc1ccc(S(=O)(=O)N2CCc3[nH]c4ccc(F)cc4c3C2)cc1	1%
CC(=O)Nc1ccc(SC(Sc2ccc(NC(C)=O)cc2)c2ccccc2)cc1	-17%
COc1ccccc1N1CCN(C(=O)CCc2nnc3ccc(N4CCC(C)CC4)nn23)CC1	5%
CC(C)C(=O)Nc1ccc(NC(=S)NC(=O)c2cc3ccccc3o2)cc1	9%
COc1cccc(/C=C/c2nc(C#N)c(N3CCN(C)CC3)o2)c1	14%
O=C(NC1CCCCCCC1)c1c(O)c2ccccc2[nH]c1=O	27%
Nc1cc(=O)[nH]c(SCC(=O)Nc2cc(S(=O)(=O)N3CCOCC3)ccc2Cl)n1	-22%
O=C(CNC1CCCCC1)Nc1cc(S(=O)(=O)N2CCOCC2)ccc1Cl	2%
Cc1ccc(NC(=O)N2CCOCC2)c(C)c1	-2%
COc1cccc(OC)c1NC(=O)CN1CCN(C)CC1	10%
Cc1ccc(SCC(=O)NCCSC(C)(C)C)cc1	-9%
O=C(COC(=O)c1c(F)cccc1Cl)NC(=O)Nc1ccc2c(c1)OCCO2	5%
COc1ccc(OC)c(-c2cc(C(=O)NCc3ccco3)no2)c1	-17%
CC(C)c1nc2ccc(C(=O)NCCCN3CCN(c4ccccc4)CC3)cc2o1	10%
COc1ccccc1CNC(=O)CSc1nn2c(=O)c(C(C)(C)C)nnc2s1	-11%
O=c1c2cn[nH]c2[nH]c(=S)n1-c1ccccc1F	-3%
COc1ccc(NC(=S)N(Cc2ccc(N(C)C)cc2)Cc2ccco2)cc1	11%
COc1ccc2sc(-c3ccc(N(C)C)cc3)c(C#Cc3cncn3C)c2c1	9%
CCCCC/C=C\CC(O)/C=C/c1cccc(CC(O)CCCCO)n1 (stereo not drawn)	50µM*!
CC(C)(C)C(=O)CN1C2=NCCCN2c2ccccc21	-1%
CCOC(=O)CSC(C)C(=O)Nc1nnc(C(C)C)s1 (stereo not drawn)	-13%
O=C1C2CCCN2C(=O)N1CCCCN1CCN(CCO)CC1 (stereo not drawn)	-10%
Cc1cc(/C=N/n2c(COc3ccccc3C)nc3ccccc3c2=O)c(O)c([N+](=O)[O-])c1	6%
CC(C)CC(=O)NC(=S)Nc1ccc(NC(=O)c2cccs2)cc1	5%
Cc1c(C(=O)N2CCCC2)oc2c1-c1nn(CC(=O)NCCCN3CCCCC3C)cc1CC2 (stereo not drawn)	-3%
CC(C)NC(=O)CCNC(=O)c1ccc(F)cc1	-1%
COc1ccc(C2=NNC(=O)C2(C)Br)cc1 (stereo not drawn)	?
O=S(=O)(ON(c1ccccc1)S(=O)(=O)c1ccccc1)c1ccccc1	-10%
CN(C(=O)c1cccc(NC(=O)Cc2cccc(NC(=O)C3CCN(C(=O)C4CCCCC4)CC3)c2)c1)C1CC1	-13%
CCCc1cc(=O)n2[nH]c(NCc3ccccc3OC)nc2n1	16%
CCOc1cc(C(=O)N/N=C/c2ccsc2)cc(OCC)c1OCC	-2%
COCc1cc(=O)[nH]c(-c2ccccc2OC(F)(F)F)n1	-8%
O=C(NCC1CCCO1)c1cccs1 (stereo not drawn)	7%
CCOc1ccc(N2CC(NC(=O)/C=C\c3ccc4c(c3)OCO4)CC2=O)cc1 (stereo not drawn)	-1%
Cc1ccc(OCC(=O)Nc2ccc(N3CCN(S(C)(=O)=O)CC3)cc2)cc1	7%
CCCn1c(O)c(N=NC(=O)c2cccnc2)c2cc(Br)ccc21	-4%
CCc1ccc(N(CC(=O)NC2CCCC2)C(=O)CCC(=O)Nc2ccccn2)cc1	1%
Nc1nc2ccc(N3CCOCC3)cc2s1	6%
O=C(Nc1cccc(S(=O)(=O)N2CCCC2)c1)c1cccc(S(=O)(=O)N2CCOCC2)c1	-2%
O=C(Nc1ccc(N2CCOCC2)cc1)c1ccc([N+](=O)[O-])cc1	9%
Cc1cc(OCC(=O)NC2CC2)c2c(C)cc(=O)oc2c1	14%
O=C(CCc1ccccc1)NNC(=S)Nc1ccc(F)cc1	14%
CN(C)CCn1c2c(c(SCC(=O)Nc3ccccc3)nc1=O)CCCC2	-20%
CC(=O)C1=C(O)C(=O)N(Cc2cccnc2)C1c1ccccc1 (stereo not drawn)	2%
Cc1cc(C)c2c(=O)n(CC(=O)Nc3ccc(Cl)cc3)sc2n1	40µM*
Cc1csc(NC(=O)CSc2nnc(NC(=O)C3CC(=O)N(c4ccccc4)C3)s2)n1 (stereo not drawn)	0%
CCN(CC)C(=O)Cn1cc(S(=O)(=O)CC(=O)Nc2cc(OC)ccc2OC)c2ccccc21	-10%
CC(=O)Nc1ccc(N2C(=O)CC(N3CCSCC3)C2=O)cc1 (stereo not drawn)	-14%

(list continues)
compound	VDR inh
CCc1ccc(S(=O)(=O)c2nnn3c2nc(N2CCOCC2)c2sccc23)cc1	-3%
COc1ccc(Nc2nc(N)nc(CN3CCN(c4ccccn4)CC3)n2)cc1	11%
Cc1ccnc(NC(=O)c2ccc(Cl)c(S(=O)(=O)N3CCCCC3)c2)c1	5%
COc1ccc(S(=O)(=O)NCCc2csc3nc(-c4ccc(Cl)cc4)nn23)cc1C	21%
CC(=O)N1c2c(cc(Br)cc2S(=O)(=O)NCc2ccc(C)cc2)CC1C (stereo not drawn)	2%
Clc1ccc(-n2c(SC/C=C/c3ccccc3)nnc2-c2cccnc2)cc1	-8%
Cc1ccc(-c2c(C)sc(NC(=O)C3C4CCC(O4)C3C(=O)O)c2C(=O)OC(C)C)cc1 (stereo not drawn)	-13%
CCN(C(=O)COC(=O)c1cccc(S(=O)(=O)N2CCOCC2)c1)C1CCS(=O)(=O)C1 (stereo not drawn)	-14%
Cc1c(C(=O)NCc2nnc(-c3ccccc3)o2)oc2c(F)cccc12	-19%
COc1cc(NC(=O)C2CC(c3ccc(Cl)cc3)=NO2)cc(OC)c1OC (stereo not drawn)	-21%
Cc1cc(C(C)(C)C)oc1C(=O)N(CC(=O)NC1CCCC1)Cc1ccc(F)cc1	-2%
COc1ccc(CN=C(C#N)C2=C(O)c3ccccc3C2=O)cc1	-8%
Cc1ccccc1OCCCCn1c(-c2ccc(Cl)cc2)nc2ccccc2c1=O	-20%
CC1CC(=O)N(CC(=O)Nc2ccc(Br)cc2)c2ccccc2S1(=O)=O (stereo not drawn)	5%
CC(Nc1nc(-c2ccc(F)cc2)cs1)c1nc2cc(Cl)c(Cl)cc2n1CCOCCO (stereo not drawn)	-18%
c1ccc(-c2nc(CSc3nnnn3-c3ccccc3)cs2)cc1	-13%
O=C1CCN(S(=O)(=O)c2ccccc2)N1	-14%
CC1CC=CC2C1C(=O)N(Cc1ccccc1)C2c1ccc(F)c(-c2ccc(N(C)C)cc2)c1 (stereo not drawn)	-5%
Cc1ccc(C2CCN(C(=S)NC(C)(C)C)C2)cc1 (stereo not drawn)	5%
O=C(CCC(=O)N/N=C/c1ccco1)N/N=C/c1ccco1	-7%
COc1cc(-c2noc(-c3ccc(NCc4ccco4)c([N+](=O)[O-])c3)n2)cc(OC)c1OC	8%
COc1ccccc1NC(=O)C1CCCN(S(=O)(=O)c2cccc3nsnc23)C1 (stereo not drawn)	-3%
CN(Cc1ccccc1)C(=O)c1cccc(NC(=O)Cc2ccc(NC(=O)C3CCN(C(=O)C4CCCC4)CC3)cc2)c1	-4%
COc1ccc(CSCC(=O)NN=C2CCN(C)CC2)cc1	0%
CCOc1ccc(CO/N=C/c2c(C)[nH]c(=O)[nH]c2=O)cc1	-13%
CC1(O)C(=O)C=C2C=C(C3CC3)OC=C2C1=O (stereo not drawn)	18%
Cc1ccc(S(=O)(=O)N2[C@@H](c3cccc(Cl)c3)C(C(=O)O)=CC[C@H]2c2cccc(C)c2)cc1	-25%
CCN(CC)C(=O)Oc1ccc(Br)c2ccccc12	-10%
CC(=O)c1sc(NC(=O)C(C)Oc2ccc3c(C)cc(=O)oc3c2)nc1C (stereo not drawn)	-9%
COc1ccc(CNC(=O)C2CCC(CNS(=O)(=O)c3cccs3)CC2)cc1 (stereo not drawn)	18%&0%
COc1ccccc1NC(=O)C(C)OC(=O)/C=C/c1ccc2ccccc2n1 (stereo not drawn)	1%
c1cncc(-c2ccc3ncnc(NCc4ccc5c(c4)OCO5)c3c2)c1	-8%
CN1C/C(=C/c2ccccc2[N+](=O)[O-])C(=O)/C(=C\c2ccccc2[N+](=O)[O-])C1	71µM*
Cc1ccc(NNC(=O)C2CCC2)cc1C	4%
COC(=O)c1ccccc1NC(=S)N1CCN(c2ccccn2)CC1	1%
COc1ccc2[nH]cc(S(=O)(=O)c3ccc(C)cc3)c2c1	-2%
FC(F)(F)c1ccc(C2Nc3cccc4cccc(c34)N2)cc1	-19%
CC(=O)/C(=C/c1ccccc1)C(=O)Nc1ccccc1C	22µM*
COCCn1c(=O)[nH]c2cc(C(=O)Nc3ccc(OC)cc3)ccc2c1=O	-2%
O=C(OCCOc1ccccc1F)c1cc(S(=O)(=O)N2CCOCC2)ccc1F	9%

14 entries from above, with the structure last.
VDR inh,Structure
-25%,Cc1ccc(S(=O)(=O)N2[C@@H](c3cccc(Cl)c3)C(C(=O)O)=CC[C@H]2c2cccc(C)c2)cc1
-10%,CCN(CC)C(=O)Oc1ccc(Br)c2ccccc12
-9%,CC(=O)c1sc(NC(=O)C(C)Oc2ccc3c(C)cc(=O)oc3c2)nc1C (stereo not drawn)
18%&0%,COc1ccc(CNC(=O)C2CCC(CNS(=O)(=O)c3cccs3)CC2)cc1 (stereo not drawn)
1%,COc1ccccc1NC(=O)C(C)OC(=O)/C=C/c1ccc2ccccc2n1 (stereo not drawn)
-8%,c1cncc(-c2ccc3ncnc(NCc4ccc5c(c4)OCO5)c3c2)c1
71µM*,CN1C/C(=C/c2ccccc2[N+](=O)[O-])C(=O)/C(=C\c2ccccc2[N+](=O)[O-])C1
4%,Cc1ccc(NNC(=O)C2CCC2)cc1C
1%,COC(=O)c1ccccc1NC(=S)N1CCN(c2ccccn2)CC1
-2%,COc1ccc2[nH]cc(S(=O)(=O)c3ccc(C)cc3)c2c1
-19%,FC(F)(F)c1ccc(C2Nc3cccc4cccc(c34)N2)cc1
22µM*,CC(=O)/C(=C/c1ccccc1)C(=O)Nc1ccccc1C
-2%,COCCn1c(=O)[nH]c2cc(C(=O)Nc3ccc(OC)cc3)ccc2c1=O
9%,O=C(OCCOc1ccccc1F)c1cc(S(=O)(=O)N2CCOCC2)ccc1F

(continued)
compound	VDR inh
CC(=O)/C(C(=N)N1CCN(C(c2ccccc2)c2ccccc2)CC1)=C(\C)O	-8%
CCn1c(SCC(=O)N/N=C/C(C)=C/c2ccco2)nnc1-c1ccccc1	-7%
CCOc1ccc(N=CC2=C(O)CC(C)(C)CC2=O)cc1	1%
CN(C)c1ncc2nc(-c3cccs3)c(=O)n(C3CC3)c2n1	-6%
CN(CC(CC(=O)Nc1nncs1)c1ccccc1)S(=O)(=O)c1ccccc1 (stereo not drawn)	-26%
O=C(CN(CCc1ccccc1)C(=O)c1csnn1)NCc1ccc(F)cc1	1%
CC(C)(C)NC(=O)CN(C(=O)CNC(=O)c1cccs1)c1ccccc1F	11%
CC(C)=CC(=O)OCC(=O)Nc1nc(C)c(Cl)cc1Cl	-8%
CC(N=C(NS(=O)(=O)c1ccc(Cl)cc1)c1ccccc1)C(=O)O (stereo not drawn)	-4%
Cc1ccc(NC(=O)c2cc(S(=O)(=O)N3CCOCC3)c(Br)s2)cc1	-16%
COc1ccccc1N(CC(=O)Nc1ccc(C)c(Cl)c1)S(=O)(=O)c1ccc(C)cc1	-17%
CCOC(=O)c1c(C)[nH]c(C(=O)OCc2ccc(F)cc2)c1C	-8%
COc1ccc(S(=O)(=O)N(CCc2ccccc2)CC(=O)O)cc1	8%
CCNS(=O)(=O)c1ccc(CCC(=O)NCc2ccccn2)cc1	-19%
COCCNC(=O)CCCCCNS(=O)(=O)c1ccc(C)cc1	-6%
N#Cc1c(-c2ccc(Cl)cc2)c(-c2ccc(Cl)cc2)nn(CCO)c1=O	0%
C/C(=N\OCc1cccc(C(=O)O)c1)c1ccc(Cl)cc1	-2%
CC1CCCCC12NC(=O)N(CC(=O)N1CCN(c3ccccc3)CC1)C2=O (stereo not drawn)	-8%

Assay outcomes: PubChem, National Center for Advancing Translational Sciences (NCATS)
